D2 PAM – positive allosteric modulators of human D2 dopamine receptor. P14416. DiscoveRx D2 beta-arrestin cells, luminescence, 90 min; 100% = 57 uM dopamine signal. potentiation, % (no concentration beside the values). 0.23% of 360,000 active. AID 624464; active = potentiation of 50% or more; inconclusive = 30% to 50%; inactive = 30% or less;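 also: compound concentration not given in the record; tested on top of an EC20 dose of dopamine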
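PathHunter D2 cells, attached overnight at 37 deg C, received compound in DMSO plus dopamine at EC20 (50 nM final) for 90 min at 37 deg C. Beta-arrestin recruitment was read as luminescence after 1 h with detection reagent at ambient temperature.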
PINK1 expr mod – modulators of PINK1 expression; AID 624263; PINK1 immunofluorescence, high-content cytometry, 24 h; Potency, µM (series often up to 76.6 µM), without a hit: at the top dose activation (PINK1 increase), hits mostly activators; 0.2% of 410,000 active; active = well fitted activation curve with a large enough effect; inconclusive = small, poorly fitted or top-dose-only effect; inactive = flat fitted curve, though single readings scatter; cell line not stated here;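 also: potency is read from the fitted curve at half-maximal effect; % of control where 0% means no effect; nearly all actives have a fitted effect of over 65% in size; a mitochondrial uncoupler was the plate control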
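Readout is PINK1 immunofluorescence, quantified alongside mitochondrial, cell and nuclear markers by laser-scanning microplate cytometry. Cells from a stable line were exposed to compound titrations (5 concentrations) for 24 hours, with CCCP controls.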
D2 ag – agonists of human D2 dopamine receptor (beta-arrestin); P14416; DiscoveRx PathHunter D2 beta-arrestin, luminescence, 90 min; 100% = 57 uM dopamine signal; activation, % (test concentration not listed); 0.084% of 360,000 active; AID 624465; in the data active = activation above about 40%; inconclusive = about 15% to 40%; inactive = below about 15%; also: compound concentration not given in the record; the text of the record calls up to 30% inactive
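Agonist mode: compounds alone added to overnight-plated D2 PathHunter cells for 90 min at 37 C, with 57 uM final dopamine (EC100) defining full response. Beta-arrestin recruitment detected by chemiluminescent reagent, read after 1 h at ambient temperature.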
CtBP-E1A inh – blocks the CtBP interaction with E1A; 0.49% of 340,000 active; AlphaScreen GST-E1A/His-CtBP binding, 1536-well; hits give low values; control for the full effect not named in the record; AID 651724; activity change, % (no concentration beside the values); in the data active means activity change below about -65%; inconclusive means about -30% to -65%; inactive means above about -30%; also: % is scaled to controls: 0 for no effect and ±100 for the full control effect; compound concentration not given in the record
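Steps: dispense buffer (Tris pH 8.0, NaCl 300 mM, TCEP 1 mM, BSA, Tween 20); add 5X protein mix (GST-E1A, His-CtBP, 125 nM each); pin 23 nL compound; 2 h at 37 °C, dark; add 5X beads (50 ug/mL); 1 h; read.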
Sfp inh – Sfp phosphopantetheinyl transferase inhibition. Potency, µM, inactives show max response, negative = inhibition, hits mostly inhibitors. Q9F4F7. Biochemical Sfp PPTase activity, qHTS. 3.5% of 310,000 active; active = well fitted inhibition curve with a large enough effect; inconclusive = small, poorly fitted or top-dose-only effect, or another doubt; inactive = no such curve, though single readings can be large or run the other way;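 also: the enzyme is Sfp with the accession as filed and its product quenches rhodamine fluorescence; potency is read from the fitted curve at half-maximal effect; 0% = enzyme reaction without inhibitor and -100% = no enzyme wells; top concentration of the series not given in the record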
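Fluorescence-quenching assay with 15 nM Sfp, 5 uM rhodamine-CoA and 12.5 uM BHQ-2-labelled ybbR peptide in pH 7.6 Hepes/MgCl2 buffer. Enzyme was pre-incubated with compound for 15 min at room temperature. Rate was taken from the 30-min fluorescence change (525/598 nm).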
Six1-Eya2 inh – inhibitors of human Six1/Eya2 interaction | Q15475+O00167 | AlphaScreen GST-Six1/His-Eya2 binding, biochemical; hits give low values; control for the full effect not named in the record | activity change, % (concentration not given with the values) | 0.56% of 360,000 active; in the data active = activity change below about -65%; inconclusive = about -30% to -65%; inactive = above about -30%; also: % is scaled to controls: 0 for no effect and ±100 for the full control effect
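AlphaScreen with GST-Six1 and His-Eya2 (5X mix: 250 nM and 500 nM), glutathione donor and nickel acceptor beads; buffer 50 mM Tris pH 8.0, 300 mM NaCl, 1 mM TCEP; 1 h at 37 C in the dark.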
TRPV1 potentiator – enhances activation of the human vanilloid receptor TRPV1; Q8NER1; TRPV1-expressing cells, Fluo-8 calcium influx, capsaicin EC20 potentiation; host cell line not named in the record; control for the full effect not named in the record; potentiation, % at 8.33 µM; 0.02% of 320,000 active; AID 540277; active means potentiation above 80%; inconclusive means 30% to 80%; inactive means below 30%; also: 0% is about no effect
Target sequence (Q8NER1 whole entry, looked up): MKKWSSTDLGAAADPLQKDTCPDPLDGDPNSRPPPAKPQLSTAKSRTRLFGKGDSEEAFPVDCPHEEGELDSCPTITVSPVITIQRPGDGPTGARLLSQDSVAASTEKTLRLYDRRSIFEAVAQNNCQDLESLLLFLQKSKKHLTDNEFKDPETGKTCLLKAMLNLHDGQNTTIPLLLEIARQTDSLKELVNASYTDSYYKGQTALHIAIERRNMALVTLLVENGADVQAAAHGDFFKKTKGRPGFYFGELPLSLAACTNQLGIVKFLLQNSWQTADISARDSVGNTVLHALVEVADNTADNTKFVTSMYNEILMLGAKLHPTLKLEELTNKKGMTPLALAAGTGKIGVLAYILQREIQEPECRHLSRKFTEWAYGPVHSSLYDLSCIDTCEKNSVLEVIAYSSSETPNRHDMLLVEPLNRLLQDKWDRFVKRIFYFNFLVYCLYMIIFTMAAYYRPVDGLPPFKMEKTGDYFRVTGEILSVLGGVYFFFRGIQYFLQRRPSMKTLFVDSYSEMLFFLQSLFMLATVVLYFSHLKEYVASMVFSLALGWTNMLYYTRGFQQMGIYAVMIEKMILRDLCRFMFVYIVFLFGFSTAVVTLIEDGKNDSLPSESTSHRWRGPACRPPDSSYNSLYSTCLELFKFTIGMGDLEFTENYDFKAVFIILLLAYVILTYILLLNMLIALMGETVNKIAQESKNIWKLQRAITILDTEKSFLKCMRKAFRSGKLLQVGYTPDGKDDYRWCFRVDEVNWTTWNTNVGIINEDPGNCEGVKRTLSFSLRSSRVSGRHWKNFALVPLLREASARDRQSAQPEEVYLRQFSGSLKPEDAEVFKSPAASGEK
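TRPV1-expressing cells were cultured overnight at 35.5C and loaded with Fluo-8 calcium dye for 40 to 90 min at room temperature. After a 10 s baseline, compound was added and calcium influx was read kinetically for 3 min (ex 480/em 520 nm).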
* marks the source's active call; other numbers are inactive results; ? = inconclusive; / = no result given; [ ] = another dose, or the depositor's remark.

Sequence of screens – D2 PAM	D2 ag	PINK1 expr mod	TRPV1 potentiator	Six1-Eya2 inh	CtBP-E1A inh	Sfp inh
COc1cc(CNc2ncnc3c2ncn3[C@H]2CN(Cc3ccccc3)C[C@@H](COC(C)=O)O2)cc(OC)c1OC
  -8	-3.2	3.3%	/	-7	-6	/
CCOc1ccc(C2C(C(=O)c3cccs3)=C(O)C(=O)N2Cc2cccnc2)cc1 (stereo not given)
  -4	-1.1	-1.6%	?	16	-5	3%
O=C(CCl)Nc1ccc(Sc2ccc(NC(=O)CCl)cc2)cc1
  0	1.3	-1.4%	-1	12	0	9%
CCn1c(=S)sc2c(=O)n(CC(=O)NCCCc3ccccc3)c(C)nc21
  -8	1.1	7.8%	2	4	2	10%
OC1CCN(Cc2ccc(OCc3ccccc3)cc2)CC1
  -18	5.0	0.2%	12	-1	1	13%
COc1ccc(/C=N/Nc2nc(-c3cccnc3)nc3ccccc23)c(OC)c1
  -5	-6.4	1.6%	/	-9	-4	?
CCCCn1c(N)c(N(CCOC)C(=O)c2sc3ccccc3c2Cl)c(=O)[nH]c1=O
  -5	0.5	-0.7%	3	11	-6	/
C=CCOc1ccc(Br)cc1CNCC
  -8	-3.3	0.5%	9	-2	-2	6%
CCOc1ccc(/C(O)=C/C(=O)C(=O)Nc2ccc(S(=O)(=O)NC(C)=O)cc2)cc1
  -2	0.4	-0.9%	-16	?	-27	6%
COc1cc(NC(=O)NS(=O)(=O)c2ccc(C)cc2)cc(OC)c1
  1	-2.1	-2.2%	4	-3	-1	-4%
C[C@@H]1CN(Cc2cn(C)nc2-c2cccc(Cl)c2)C[C@H](C)O1
  -8	-2.8	1.9%	23	9	4	23%
CC(NC(=O)C1CCN(S(=O)(=O)N2CCC3(CC2)OCCO3)CC1)c1ccccc1 (stereo not given)
  -14	2.5	-1.1%	-33	1	/	12%
O=C1NC[C@@H](CCCCN2C[C@H](Cc3ccccc3)N(CC3CCCCC3)C(=O)C2=O)N(CCc2ccccc2)C1=O
  /	/	2.2%	/	1	0	/
O=C(CCNC(=O)c1ccc(Cl)cc1)Nc1ccc(S(=O)(=O)N2CCOCC2)cc1
  -2	-1.5	6.5%	13	4	-24	/
CCCCn1c(N)c(N(CCOC)C(=O)c2ccco2)c(=O)[nH]c1=O
  -5	-1.1	-1.7%	30	3	3	/

(listing goes on)
Sequence of screens – D2 PAM	D2 ag	PINK1 expr mod	TRPV1 potentiator	Six1-Eya2 inh	CtBP-E1A inh	Sfp inh
CCN(c1ccccc1)S(=O)(=O)c1cc2c(cc1C)N(C)CCO2
  -1	1.3	0.9%	13	?	-17	10%
O=C(O)C(Cc1ccccc1)N1C(=O)/C(=C/C=C/c2ccco2)SC1=S (stereo not given)
  -5	-2.3	1.2%	5	?	5	40µM*
O=C(Nc1nnc(CC(=O)N2CCOCC2)s1)c1cccs1
  -23	-5.7	-1.0%	9	0	-1	11%
CC(C)C(=O)c1cn(CC(=O)NCc2ccc3c(c2)OCO3)c2ccccc12
  -2	-3.2	0.3%	-17	-1	-1	10%
COC(=O)c1ccc(OC)c(OC2CCCC2)c1
  -26	-5.3	0.5%	-7	7	/	3%
COc1ccc(OC)c(NC(=O)C2(C)CCN2C(=O)Cc2ccccc2)c1 (stereo not given)
  3	2.6	-0.1%	/	-4	1	/
Cc1ccc(N(CC(=O)Nc2cccc(C)c2)S(=O)(=O)c2cccc3nonc23)cc1
  -10	-0.3	1.2%	-10	-15	/	24%
N#C/C(=C(/O)CSc1ccccn1)c1nc2ccccc2s1
  -1	-1.4	1.3%	2	-5	3	-4%
COc1cc(C)ccc1OCCCOc1ccccc1Cl
  -12	-3.2	3.2%	1	49	19	7%
O=C(Nc1ccc(F)c(Cl)c1)c1ccc2sc([C@@H]3O[C@H](CO)[C@H](O)[C@H](O)[C@H]3O)nc2c1
  -6	-6.3	1.4%	/	-2	-6	/
Nc1n[nH]c(CCCO)n1
  12	-1.0	1.5%	-1	1	-12	11%
CC(C)(C)OC(=O)NCCCCCc1nnc(SCc2ccc(F)cc2)o1
  -9	-0.6	0.5%	-21	3	6	-6%
COC(=O)CN1C(=S)N(Cc2ccccc2)C(=O)C1CC(=O)Nc1ccc(OC)cc1 (stereo not given)
  23	2.8	-0.3%	-19	1	7	8%
N/C(Cc1ccc(Cl)cc1)=N\OC(=O)CCc1ccccc1
  4	5.7	-0.4%	/	28	24	/
CCC(C)(C(=O)NC1CCCC1)N(C(=O)c1cnccn1)c1ccccc1 (stereo not given)
  -11	-4.2	1.3%	/	-3	5	8%

Four compounds already listed, sorted by count of non-hydrogen atoms, largest number first.
Sequence of screens – D2 PAM	D2 ag	PINK1 expr mod	TRPV1 potentiator	Six1-Eya2 inh	CtBP-E1A inh	Sfp inh
COC(=O)CN1C(=S)N(Cc2ccccc2)C(=O)C1CC(=O)Nc1ccc(OC)cc1 (stereo not given)
  23	2.8	-0.3%	-19	1	7	8%
CCOc1ccc(C2C(C(=O)c3cccs3)=C(O)C(=O)N2Cc2cccnc2)cc1 (stereo not given)
  -4	-1.1	-1.6%	?	16	-5	3%
OC1CCN(Cc2ccc(OCc3ccccc3)cc2)CC1
  -18	5.0	0.2%	12	-1	1	13%
C=CCOc1ccc(Br)cc1CNCC
  -8	-3.3	0.5%	9	-2	-2	6%

Of the compounds above, 3 have an NH in an aromatic ring:
Sequence of screens – D2 PAM	D2 ag	PINK1 expr mod	TRPV1 potentiator	Six1-Eya2 inh	CtBP-E1A inh	Sfp inh
CCCCn1c(N)c(N(CCOC)C(=O)c2sc3ccccc3c2Cl)c(=O)[nH]c1=O
  -5	0.5	-0.7%	3	11	-6	/
CCCCn1c(N)c(N(CCOC)C(=O)c2ccco2)c(=O)[nH]c1=O
  -5	-1.1	-1.7%	30	3	3	/
Nc1n[nH]c(CCCO)n1
  12	-1.0	1.5%	-1	1	-12	11%

Additional structures.
Sequence of screens – D2 PAM	D2 ag	PINK1 expr mod	TRPV1 potentiator	Six1-Eya2 inh	CtBP-E1A inh	Sfp inh
COc1ccc(C)cc1NC(=O)CCN1CCN(C/C=C/c2ccccc2)CC1
  0	3.9	-0.8%	-8	-6	-12	11%
Oc1ccc2ccccc2c1CNc1ccccc1
  7	14	8.9%	/	4	-2	/
Cc1cc(Cl)nc(Cl)c1C(=O)NCCc1ccccc1
  -1	1.0	1.6%	-38	3	2	/
CCc1nc(SCC(=O)N2c3ccccc3CC2C)c2c(C)c(C)sc2n1 (stereo not given)
  0	-3.0	/	-9	-3	14	-13%
CN(C)CCNC(=O)Cn1nc(C(F)F)cc1C1CC1
  -5	-1.8	2.0%[38.3 µM]	7	-6	-21	?
CCC(CO)Oc1cc(NCc2ccccc2F)c2ncn(C(C)C)c2c1 (stereo not given)
  -7	0.8	-1.9%	-15	-6	-14	/
NC(N)=N/N=C/c1ccc(OCc2ccccc2)c(OCc2ccccc2)c1
  -3	-2.3	-3.9%	2	10	-18	56µM*
COc1ccc(OC)c(S(=O)(=O)Nc2ccc3oc(C)c(C(C)=O)c3c2)c1
  5	-1.2	1.1%	14	-4	-12	4%
COc1ccc(C(=O)NNc2ccccc2)cc1
  -24	0.0	4.0%	-4	-2	6	-19%
O=C(NC1CCCCC1)C12CC3CC(C1)CC(n1cncn1)(C3)C2
  0	0.9	0.1%	5	0	5	2%
COc1ccccc1S(=O)(=O)c1ccccc1[N+](=O)[O-]
  -8	3.9	-1.8%	4	7	6	3%
CCCCN1C2=NC(c3ccccc3)CN2c2ccccc21 (stereo not given)
  -21	-5.9	-0.7%	/	4	-2	/
COC(=O)c1ccc(Cn2cnc3ccccc3c2=O)cc1
  -6	0.7	-1.3%	0	4	6	0%
CC1CCN(C(=O)CN2C(=O)COc3ccc(Cl)cc32)CC1
  -6	-6.6	0.4%	-2	-5	-18	9%
Cc1cccc(NC(=O)/C=C/c2cccs2)n1
  -13	1.3	-0.5%	/	-1	-9	-22%

Further compounds follow.
Sequence of screens – D2 PAM	D2 ag	PINK1 expr mod	TRPV1 potentiator	Six1-Eya2 inh	CtBP-E1A inh	Sfp inh
CC(C)c1ccc(CNC(=O)C(=O)NCCCn2ccnc2)cc1
  4	1.8	0.9%	10	0	-10	5%
O=c1[nH]cnc2scc(-c3ccc(Br)cc3)c12
  -7	-5.6	1.7%	-10	-1	-10	8%
CCC/C=C/c1ccc(CN2C(CC(C)C)C(=O)N(Cc3cn(CCC4OCCCO4)nn3)CCS2(=O)=O)cc1 (stereo not given)
  /	2.8	0.4%	/	-6	?	/
Cc1cc(Cl)ccc1NC(=O)CN1CCN(C(=O)c2ccco2)CC1
  4	2.3	-3.2%	2	7	-17	19%
COc1ccc(N2CCN(C(=O)COC(=O)[C@@H](NC(=O)OCc3ccccc3)C(C)C)CC2)cc1
  11	0.2	2.3%	/	-15	-4	/
CC(C)c1c(C(=O)N/N=C/c2cccc(OCc3ccccc3)c2)nnn1-c1nonc1N
  1	4.9	13%	-27	0	-9	19%
CCc1ccccc1NC(=O)c1cc(S(=O)(=O)N2CCc3ccccc32)cn1C
  -1	-0.6	1.3%	10	-5	0	12%
CN(C)C/C(Cl)=C(\Cl)c1ccccc1
  0	-0.3	2.0%	-2	-2	9	-5%
CCCCOc1ccc(NC(=O)Cn2c(=O)ccc3c(C)cc(C)nc32)cc1
  -1	-2.7	0.9%	-2	0	3	5%
CCn1c(SCC(=O)Nc2ccc3c(c2)OCO3)nnc1-c1ccccc1O
  -13	-1.7	/	8	0	4	-7%
CCc1ccc(Nc2n[n+](C)c(-c3ccncc3)s2)cc1
  -18	-4.3	1.4%	-22	-6	-6	79µM*
O=C(Nc1ccon1)c1sc2cc(Cl)ccc2c1Cl
  -10	-1.9	1.3%	2	2	2	-2%
COc1ccc(C(C(=O)Nc2ccc(C(C)C)cc2)N(C)C(=O)c2ccc(=O)[nH]c2)cc1 (stereo not given)
  -15	-4.6	-0.5%	10	0	-3	2%
FC(F)(F)c1nc(Oc2ccccc2)c2ccccc2n1
  -30	1.5	?	26	16	12	-21%
CC(C)c1ccc(Nc2nnc(SCC(=O)NCC3CCCO3)s2)cc1 (stereo not given)
  -5	0.1	-1.5%	/	-19	-4	/
CC(Oc1cc2oc(=O)c3c(c2cc1Cl)CCC3)C(=O)N1C[C@H]2C[C@@H](C1)c1cccc(=O)n1C2 (stereo not given in full)
  -26	-5.5	-0.3%	19	-3	1	11%
